Cruzain noTriton – qHTS Assay for Promiscuous and Specific Inhibitors of Cruzain (without detergent). Cruzipain (Trypanosoma cruzi), P25779. purified cruzain, Z-FR-AMC fluorescence, no detergent. AID 1476, 2009. 2.3% of 200,000 active. Potency, µM, for inactives: max response, negative = inhibition, actives largely listed as inhibitors; active = well fitted curve in the direction sought with a large enough effect; inconclusive = small, poorly fitted or top-dose-only effect, or another doubt; inactive = no such curve, though single readings can be large; an effect the other way counts as inactive or inconclusive;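 note: plate controls were enzyme without inhibitor for no effect and buffer without enzyme for full effect; nearly all actives have a fitted effect of over 40% in size; top concentration of the series not given in the record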
Target sequence (P25779 123-467 limits assumed): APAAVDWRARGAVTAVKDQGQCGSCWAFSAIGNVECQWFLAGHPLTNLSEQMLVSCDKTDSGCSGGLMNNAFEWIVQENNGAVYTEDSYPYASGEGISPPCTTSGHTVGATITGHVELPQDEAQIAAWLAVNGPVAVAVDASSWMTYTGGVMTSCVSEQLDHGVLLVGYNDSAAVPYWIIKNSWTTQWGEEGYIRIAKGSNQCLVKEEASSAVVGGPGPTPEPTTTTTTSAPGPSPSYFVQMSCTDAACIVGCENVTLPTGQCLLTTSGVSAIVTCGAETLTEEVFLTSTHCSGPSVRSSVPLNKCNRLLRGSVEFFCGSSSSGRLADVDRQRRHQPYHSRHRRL
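Detergent-free condition (0.00005% Triton X-100) in acetate buffer pH 5.5 with DTT. 1.5 nM enzyme and compound were pre-mixed 15 min, then 2 uM Z-FR-AMC substrate added; reaction progress from fluorescence change between first and third reads (60 s).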
StopGo reporter – High Throughput Screening for Foot and Mouth Disease Virus Antivirals. human cells with a luciferase reporter of 2A StopGo recoding; control for the full effect not named in the record. Potency, µM (highest dose often 57.9 µM), without a hit: at the top dose signal change, negative = less light. 1.2% of 410,000 active; active = well fitted falling curve with a large enough effect; inconclusive = small, poorly fitted or top-dose-only effect; inactive = no such curve, though single readings can be large or run the other way; tested in HEK293T cells; note: % is set by controls: 0 for no effect and ±100 for the full control effect; nearly all actives have a fitted effect of over 45% in size; luciferase light after 4 h
LASV entry inh – qHTS for Inhibitors of binding or entry into cells for Lassa Virus; Potency, µM (top dose mostly 37.9 µM), for the others: top-dose activity change, negative = inhibition, actives largely listed as inhibitors; Lassa virus pseudotype entry inhibition, cell reporter; control for the full effect not named in the record; 1.2% of 300,000 active; AID 540256, 2011; active means well fitted inhibition curve with a large enough effect; inconclusive means small, poorly fitted or top-dose-only effect, or effect the other way; inactive means flat fitted curve, though single readings scatter; tested in HEK293 cells; note: % is set by controls: 0 for no effect and ±100 for the full control effect; nearly all actives have a fitted effect of over 50% in size; luciferase read-out
SARS PLpro yeast – qHTS of Yeast-based Assay for SARS-CoV PLP; Potency, µM (highest dose often 32.9 µM), without a hit: at the top dose activity, positive = growth rescue; 0.19% of 330,000 active; S. cerevisiae expressing SARS-CoV PLpro, growth rescue; control for the full effect not named in the record; note: 0% is about no effect; nearly all actives have a fitted effect of over 55% in size; growth read by luminescence after 48 h
Marburg entry inh – qHTS for inhibitors of binding or entry into cells for Marburg Virus | 1.8% of 300,000 active | Potency, µM (doses to about 37.8 µM), for the others: at the highest dose activity change, negative = inhibition, actives largely listed as inhibitors | AID 540276, 2011 | Marburg virus pseudotyped entry inhibition, cell reporter; control for the full effect not named in the record; about a third of the inactives were read at about 46 µM; active = well fitted inhibition curve with a large enough effect; inconclusive = small, poorly fitted or top-dose-only effect, or effect the other way; inactive = flat fitted curve, though single readings scatter; tested in HEK293 cells; about a fifth of its hits are not listed in these tables; note: % is set by controls: 0 for no effect and ±100 for the full control effect; luciferase read-out
NS1 function inh – qHTS Assay for Inhibitors of Influenza NS1 Protein Function; S. cerevisiae slowed by influenza A NS1, growth recovery by OD600; Potency, µM (top dose mostly 46.1 µM), without a hit: at the top dose activity, positive = more growth; 0.4% of 270,000 active; note: actives are rising curves; nearly all actives have a fitted effect of over 50% in size
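In this qHTS, NS1 from influenza A is expressed in budding yeast, where it slows growth. Cells are switched from glucose to 2% galactose medium (pH 6.0, -URA), treated with compound, and growth recovery is read at OD600.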
Cruzain Triton – qHTS Assay for Promiscuous and Specific Inhibitors of Cruzain (with detergent). purified cruzain, Z-FR-AMC fluorescence, 0.01% Triton. Potency, µM, inactives show max response, negative = inhibition, most hits filed as inhibitors. Cruzipain (Trypanosoma cruzi), P25779. AID 1478, 2009. 0.43% of 200,000 active; active = well fitted curve in the direction sought with a large enough effect; inconclusive = small, poorly fitted or top-dose-only effect, or another doubt; inactive = no such curve, though single readings can be large; an effect the other way counts as inactive or inconclusive;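 note: plate controls were neutral wells for no effect and buffer without enzyme for full effect; nearly all actives have a fitted effect of over 40% in size; top concentration of the series not given in the record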
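Purified cruzain (1.5 nM final) was preincubated with compounds for 15 min at room temperature in 100 mM sodium acetate pH 5.5, 5 mM DTT, 0.01% Triton X-100. Reaction started with 2 uM Z-FR-AMC; AMC fluorescence change over 60 s gave activity.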
RE007 growth inh – qHTS Assay for Inhibitors of the HIV-1 protein Vpr; 0.21% of 360,000 active; S. pombe RE007 Vpr strain, BacTiter-Glo ATP luminescence, 24 h; control for the full effect not named in the record; Potency, µM (doses to about 92.2 µM), without a hit: top-dose activity change, negative = less growth; AID 651644, 2012; active = well fitted falling curve with a large enough effect; inconclusive = small, poorly fitted or top-dose-only effect; inactive = no such curve, though single readings can be large or run the other way;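 note: % is set by controls: 0 for no effect and ±100 for the full control effect; nearly all actives have a fitted effect of over 50% in size; the assay follows cell death caused by Vpr and the record does not say whether a fall means rescue or toxicity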
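Fission yeast RE007 carrying one integrated HIV-1 vpr copy, seeded at OD 0.01 in PMG+AL medium with 23 nL pinned compound. Grown 24 h at 30 degrees; viability read by BacTiter-Glo luminescence after 5 min.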
Starred values were filed as active, the others as inactive; ? = inconclusive; / = no result given; & = joins results of further samples; [ ] = dose if it differs, or a comment. Unless noted, calls come from the whole dose curve; as a rule, active means well fitted rising curve with a large enough effect; inconclusive means small, poorly fitted or top-dose-only effect; inactive means no such curve, though single readings can be large or run the other way. Potency is the fitted concentration of half-maximal effect. Compounds were not picked by outcome. Share with any hit: about 4.5%.

SMILES | Cruzain noTriton | StopGo reporter | LASV entry inh | SARS PLpro yeast | Marburg entry inh | NS1 function inh | Cruzain Triton | RE007 growth inh
CCCCN(CC)CCNC(=O)c1cc2cc3ccc(Cl)cc3nc2o1 | / | -20% | -15% | 1% | ? | 2% | / | -2%
Cc1ccc(OCC(=O)Nc2ccc(C)c(S(=O)(=O)N3CCCCC3)c2)c([N+](=O)[O-])n1 | -3% | ? | ? | -14% | 1.1µM* | 9% | -7.0% | -3%
Cc1cccc(NC(=O)c2sc3nc4c(cc3c2N)CN(Cc2ccccc2)CC4)c1 | -6% | -16% | -2%[46.1 µM] | / | 27%[46.1 µM] | / | 2.3% | /
CCOC(=O)Cn1c(O)c(N=NC(=O)OC)c2ccccc21 | / | -4% | -1% | -1% | 3% | 6% | / | 6%
CCCN(CCC)C(=O)Cn1c(=O)n(Cc2ccc(C(=O)NCCc3ccc(OC)c(OC)c3)cc2)c(=O)c2ccccc21 | -2% | 0% | 9%[46.1 µM] | / | 10%[46.1 µM] | / | -1.8% | /
CN1CCN(CCC(=O)N/N=C/C=C2\N(C)c3ccccc3C2(C)C)CC1 | / | -8% | 1% | -5% | ? | -5% | / | -9%
CCCNS(=O)(=O)c1cccc(C(=O)NNC(=O)c2cc(C)oc2C)c1 | / | 8% | 17% | 0% | ? | / | / | -15%
CCOc1ccc(C(=O)Nc2cccc(OCc3cc(=O)n4cc(C)sc4n3)c2)cc1 | -3% | 0% | 22%[46.1 µM] | / | 6%[46.1 µM] | / | -1.0% | /
Cc1ccsc1C(=O)N(C)CC(=O)N(CC(C)C)c1c(N)n(CC(C)C)c(=O)[nH]c1=O | / | 2% | 10% | 1% | 0% | / | / | 1%
CCC(C(=O)Nc1cc(-c2nc3cccnc3s2)ccc1C)c1ccccc1 (configuration not stated) | ? | 6% | -2%[46.1 µM] | / | / | / | -12% | /
Cc1ccc(S(=O)(=O)N2CCOCC2)cc1C(=O)NCc1cccnc1 | 7% | / | 8% | 2% | 1% | 1% | -4.0% | -6%
O=C(COc1cccc(Cl)c1)N1CCC(c2nc3ccccc3s2)CC1 | ? | 0% | 0%[46.1 µM] | / | 5%[46.1 µM] | / | -8.7% | /
COc1ccc(C(=O)C2CCCN(C(=O)CCNC(C)=O)C2)cc1OC (configuration not stated) | / | 9% | / | 0% | / | 3% | / | -5%
CN(C)C=Nc1nonc1-c1ccccc1 | / | 13% | / | -1% | / | -4% | / | -28%
CCOc1ccc(-c2nc(CSCC(=O)NCc3ccc(Cl)cc3)c(C)o2)cc1 | -5% | ? | -2%[46.1 µM] | / | / | / | -1.0% | /
CCCn1cc2c(c1-c1cccc(C)c1)c(=O)n(C)c(=O)n2C | -4% | -25% | 2% | 0% | 3% | -32% | -7.5% | 12%
Cc1ccc(OCC(=O)Nc2ccc(F)cc2)c([N+](=O)[O-])n1 | / | 38%[activator] | 14%[46.1 µM] | -2% | ? | 6% | / | -17%
CN(c1ccccc1C(=O)Nc1ccc2c(c1)OCCO2)S(C)(=O)=O | -8% | 15% | 13% | -23% | 1% | 9% | 3.2% | 11%
Cn1c(=O)c2nc3ccc(NC(=O)C(F)(F)F)cc3nc2n(C)c1=O | -12% | -1% | 2%[46.1 µM] | / | ? | / | -2.3% | /
CC(C)Oc1ccc(C(=O)Nc2nc3c(s2)CC(C(C)(C)C)CC3)cc1 (configuration not stated) | 15% | ? | 13%[46.1 µM] | / | 10%[46.1 µM] | / | -2.9% | /
CCCCn1c(N)c(Sc2ccc(Cl)cc2)c(=O)[nH]c1=O | -9% | -22% | ? | 13% | ? | 3% | 5.4% | -5%
CC1(C)SC(=S)N(c2ccccc2)C1/[N+]([O-])=C/c1cccc([N+](=O)[O-])c1 (configuration not stated) | / | -10% | -9% | -1% | 1%[46.1 µM] | 0% | / | 1%
CCOC(=O)C1=C(C)NC(=S)N(C(C)=O)C1c1ccccc1 (configuration not stated) | -3% | -10% | -25% | 1% | -2% | -15% | -11% | -6%
C=CCNC(=O)CSc1nc2sc3c(c2c(=O)n1CCC)CCC3 | / | 6% | -6% | -1% | 5%[46.1 µM] | 12% | / | -3%

Some values from the entries so far:
`CCOc1ccc(-c2nc(CSCC(=O)NCc3ccc(Cl)cc3)c(C)o2)cc1` @ LASV entry inh = -2%[46.1 µM]
`Cn1c(=O)c2nc3ccc(NC(=O)C(F)(F)F)cc3nc2n(C)c1=O` @ LASV entry inh = 2%[46.1 µM]

Further compounds
SMILES | Cruzain noTriton | StopGo reporter | LASV entry inh | SARS PLpro yeast | Marburg entry inh | NS1 function inh | Cruzain Triton | RE007 growth inh
CC(C)C1Cc2c(sc3[nH]c(=S)n(Cc4ccccc4)c(=O)c23)CO1 (configuration not stated) | -6% | ? | 0.79µM* | 23% | ? | 6% | -1.5% | 12%
Cc1nnc(SCC(=O)O)o1 | / | -12% | 21% | 0% | 2%[46.1 µM] | 3% | / | 7%
CC(C)CC(=O)Nc1cccc(C(=O)Nc2ccccc2C(=O)O)c1 | 2% | 33%[activator] | -1% | -3% | -16% | 4% | -1.6% | 12%
Cc1ccc(C(C)NC(=O)CSc2ccc(S(=O)(=O)N3CCOCC3)cn2)cc1C (configuration not stated) | / | -9% | -15% | -4% | 14% | / | / | -13%
COc1ccc2[nH]c(=O)c(CN(CC3CCCO3)C(=S)Nc3ccccc3)cc2c1 (configuration not stated) | / | -17% | / | -1% | / | 2% | / | -5%
CCOC(=O)c1sc(N2N=C(C)C(N=Nc3cccc(C)c3)C2=O)nc1C (configuration not stated) | / | 20% | / | 0% | 3% | 9% | / | -9%
CCC(=O)Nc1cccc(C2=NOC3(C2)C[C@@H](C(N)=O)N(C(=O)c2ccccc2C(=O)c2ccccc2)C3)c1 (some centres not stated) | / | -12% | / | 2% | / | -5% | / | 10%
COCCn1c(N)c(N(Cc2ccccc2)C(=O)CSCC(=O)Nc2ccc(C)cc2)c(=O)[nH]c1=O | / | -14% | -26% | -1% | 17% | / | / | -19%
CCC(=O)N/N=C(\C)CC(=O)Nc1cc(Cl)ccc1C | -1% | -16% | 17% | -5% | ? | 9% | -0.9% | -16%
Cc1ccc(OCCCCN2CCc3ccccc3C2)c(C)c1 | / | -5% | ? | -2% | ? | -39% | / | 5%
CCOC(=O)c1ccccc1NC(=O)CSc1ncc2c(n1)-c1ccccc1N(CC)S2(=O)=O | -27% | -21% | -21%[46.1 µM] | / | / | / | -3.3% | /
C/C(=N\Nc1ccc2nncn2n1)c1ccccn1 | / | 23% | ? | -3% | ? | -68% | / | 25%

The last three entries of the section above lead into the next.
SMILES | Cruzain noTriton | StopGo reporter | LASV entry inh | SARS PLpro yeast | Marburg entry inh | NS1 function inh | Cruzain Triton | RE007 growth inh
Cc1ccc(OCCCCN2CCc3ccccc3C2)c(C)c1 | / | -5% | ? | -2% | ? | -39% | / | 5%
CCOC(=O)c1ccccc1NC(=O)CSc1ncc2c(n1)-c1ccccc1N(CC)S2(=O)=O | -27% | -21% | -21%[46.1 µM] | / | / | / | -3.3% | /
C/C(=N\Nc1ccc2nncn2n1)c1ccccn1 | / | 23% | ? | -3% | ? | -68% | / | 25%
O=C(CSc1nnc(Cn2nnc3ccccc32)o1)Nc1ccc(Cl)cc1 | -5% | 9% | 23% | 7% | 8% | 3% | -1.7% | 3%
COCCCNC(=O)c1cn(C)c(=O)c2cc(OC)c(OC)cc12 | 5% | 6% | 1% | 0% | 11% | 2% | 2.2% | -8%
Cc1onc(-c2ccccc2)c1C(=O)OCC(=O)NCc1ccc(F)cc1 | / | ? | -5% | -6% | 10%[46.1 µM] | / | / | 2%
O=S(=O)(Nc1ccccn1)c1ccc(C2CCCCC2)cc1 | -7% | / | 5% | -3% | 10% | -8%[9.22 µM] | -2.8% | 5%
CC(=O)NCC(=O)OCC(=O)N1c2ccccc2Sc2ccccc21 | / | -23% | -20%[46.1 µM] | 2% | ? | / | / | -2%
CC(=O)Nc1ccc(S(=O)(=O)NC2=C(N3CCN(Cc4ccccc4)CC3)C(=O)c3ccccc3C2=O)cc1 | -1% | -15%&-22% | ? | 3% | ? | -6% | -1.4% | ?
O=C(Cc1cccs1)NCCc1ccc(Cl)cc1 | / | 8% | / | 1% | / | 7% | / | 1%
COc1cc(/C=C/c2cccc[n+]2C)ccc1OCC(=O)Nc1ccccc1C | / | 2% | 3%[46.1 µM] | -1% | 0%[46.1 µM] | -26% | / | -11%
COc1ccc2[nH]c(=O)c(CN(Cc3nnnn3CCc3ccccc3)CC3CCCO3)cc2c1 (configuration not stated) | ? | -22% | ? | 2% | -10%&-10% | -66% | -2.0% | 6%
Cc1ccc(C2C3C(=O)N(c4ccc(C)cc4)C(=O)C3N3CCCN23)cc1 (configuration not stated) | / | 12% | / | -2% | / | -1% | / | -6%
C=CCOC(=O)C1=C[C@H](c2ccccc2)[C@@H](CCCO)[C@H](OCC)O1 | / | -22% | / | 0% | / | 0% | / | 3%
COc1ccc(N2C(=O)CSC23C(=O)N(Cc2ccccc2F)c2ccccc23)cc1Cl (configuration not stated) | ? | ? | ? | / | / | / | -8.0% | /
CSc1ccccc1NC(=O)CN(C)CC(=O)c1[nH]c(C)c(C(C)=O)c1C | / | 35µM* | -26% | -13% | -1% | / | / | -16%
CCOC(=O)C1CCN(C(=O)Cc2c(C(=O)O)n(C)c3ccccc23)CC1 | 3% | 6% | -5% | -3% | -3% | 3% | -2.8% | -7%
O=c1[nH]c2ccccc2n1C1=CCNCC1 | / | 0% | -13% | 5% | 13% | -3% | / | 0%
